Source: PubChem BioAssay (National Center for Advancing Translational Sciences (NCATS))
RE007 growth inh = less growth of the S. pombe RE007 Vpr strain | S. pombe RE007 Vpr strain, BacTiter-Glo ATP luminescence, 24 h; control for the full effect not named in the record | Potency, µM (highest dose often 92.2 µM), for inactives: top-dose activity change, negative = less growth | 360,000 tested, 0.21% active | AID 651644; active = well fitted falling curve with a large enough effect; inconclusive = small, poorly fitted or top-dose-only effect; inactive = no such curve, though single readings can be large or run the other way;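 also: % is scaled to controls: 0 for no effect and ±100 for the full control effect; nearly all actives have a fitted effect of over 50% in size; the assay follows cell death caused by Vpr and the record does not say whether a fall means rescue or toxicity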
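Fission yeast RE007 carrying one integrated HIV-1 vpr copy, seeded at OD 0.01 in PMG+AL medium with 23 nL pinned compound. Grown 24 h at 30 degrees; viability read by BacTiter-Glo luminescence after 5 min.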
SARS PLP yeast = inhibitors of SARS-CoV papain-like protease in yeast | S. cerevisiae expressing SARS-CoV PLpro, growth rescue; control for the full effect not named in the record | Potency, µM (series often up to 32.9 µM), inactives show at the highest dose activity, positive = growth rescue | 330,000 tested, 0.19% active | AID 485353; active means well fitted rising curve with a large enough effect; inconclusive means small, poorly fitted or top-dose-only effect; inactive means no such curve, though single readings can be large or run the other way; also: 0% is about no effect; nearly all actives have a fitted effect of over 55% in size; growth read by luminescence after 48 h
2A StopGo = FMDV 2A StopGo reporter, luciferase signal. Potency, µM (titrated, usually from 57.9 µM), without a hit: top-dose signal change, negative = less light. human cells with a luciferase reporter of 2A StopGo recoding; control for the full effect not named in the record. AID 1159524. 410,000 tested, 1.2% active; active = well fitted falling curve with a large enough effect; inconclusive = small, poorly fitted or top-dose-only effect; inactive = no such curve, though single readings can be large or run the other way; tested in HEK293T cells; also: % is scaled to controls: 0 for no effect and ±100 for the full control effect; nearly all actives have a fitted effect of over 45% in size; luciferase light after 4 h
Lassa entry inh = inhibitors of Lassa virus binding or cell entry; Lassa virus pseudotype entry inhibition, cell reporter; control for the full effect not named in the record; Potency, µM (top dose mostly 37.9 µM), for the others: at the highest dose activity change, negative = inhibition, usual class: inhibitors; 300,000 tested, 1.2% active; AID 540256; active means well fitted inhibition curve with a large enough effect; inconclusive means small, poorly fitted or top-dose-only effect, or effect the other way; inactive means flat fitted curve, though single readings scatter; tested in HEK293 cells; also: % is scaled to controls: 0 for no effect and ±100 for the full control effect; nearly all actives have a fitted effect of over 50% in size; luciferase read-out
Cruzain noTriton = cruzain (T. cruzi) inhibition without detergent | P25779 | purified cruzain, Z-FR-AMC fluorescence, no detergent | Potency, µM, for inactives: max response, negative = inhibition, hits mostly inhibitors | 200,000 tested, 2.3% active | AID 1476;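 also: plate controls were enzyme without inhibitor for no effect and buffer without enzyme for full effect; nearly all actives have a fitted effect of over 40% in size; top concentration of the series not given in the record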
Target sequence (P25779 123-467 limits assumed): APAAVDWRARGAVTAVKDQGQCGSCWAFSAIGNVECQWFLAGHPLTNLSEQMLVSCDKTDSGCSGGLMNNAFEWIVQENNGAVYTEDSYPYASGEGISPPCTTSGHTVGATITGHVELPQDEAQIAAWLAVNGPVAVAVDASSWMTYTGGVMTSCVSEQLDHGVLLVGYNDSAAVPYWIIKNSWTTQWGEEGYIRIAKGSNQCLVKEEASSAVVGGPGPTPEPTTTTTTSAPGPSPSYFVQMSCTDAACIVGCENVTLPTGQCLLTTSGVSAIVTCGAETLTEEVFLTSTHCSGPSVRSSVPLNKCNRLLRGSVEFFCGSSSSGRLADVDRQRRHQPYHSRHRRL
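Detergent-free condition (0.00005% Triton X-100) in acetate buffer pH 5.5 with DTT. 1.5 nM enzyme and compound were pre-mixed 15 min, then 2 uM Z-FR-AMC substrate added; reaction progress from fluorescence change between first and third reads (60 s).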
Marburg entry inh = Marburg virus entry inhibition. Marburg virus pseudotyped entry inhibition, cell reporter; control for the full effect not named in the record; about a third of the inactives were read at about 46 µM. Potency, µM (top dose mostly 37.8 µM), for the others: top-dose activity change, negative = inhibition, actives largely listed as inhibitors. 300,000 tested, 1.8% active. AID 540276; active = well fitted inhibition curve with a large enough effect; inconclusive = small, poorly fitted or top-dose-only effect, or effect the other way; inactive = flat fitted curve, though single readings scatter; tested in HEK293 cells; about a fifth of its hits are not listed in these tables; also: % is scaled to controls: 0 for no effect and ±100 for the full control effect; luciferase read-out
Cruzain inh Det = inhibitors of Trypanosoma cruzi cruzain with detergent | purified cruzain, Z-FR-AMC fluorescence, 0.01% Triton | P25779 | Potency, µM, without a hit: max response, negative = inhibition, usual class: inhibitors | 200,000 tested, 0.43% active | AID 1478;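 also: plate controls were neutral wells for no effect and buffer without enzyme for full effect; nearly all actives have a fitted effect of over 40% in size; top concentration of the series not given in the record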
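Enzyme 1.5 nM, Z-FR-AMC 2 uM, NaOAc 100 mM pH 5.5, DTT 5 mM, Triton X-100 0.01%; 15 min RT compound preincubation; kinetic ex360/em450, 60 s delta.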
NS1 inh = blocks influenza NS1 protein function; Potency, µM (highest dose often 46.1 µM), inactives show top-dose activity, positive = more growth; 270,000 tested, 0.4% active; S. cerevisiae slowed by influenza A NS1, growth recovery by OD600; AID 2326; active means well fitted rising curve with a large enough effect; inconclusive means small, poorly fitted or top-dose-only effect; inactive means no such curve, though single readings can be large or run the other way; also: nearly all actives have a fitted effect of over 50% in size
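In this qHTS, NS1 from influenza A is expressed in budding yeast, where it slows growth. Cells are switched from glucose to 2% galactose medium (pH 6.0, -URA), treated with compound, and growth recovery is read at OD600.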
Starred values were filed as active, the others as inactive; & = joins results of further samples; [ ] = remark or other dose. Unless noted, calls follow the shape of the dose curve; as a rule, active = well fitted curve in the direction sought with a large enough effect; inconclusive = small, poorly fitted or top-dose-only effect, or another doubt; inactive = no such curve, though single readings can be large; an effect the other way counts as inactive or inconclusive. Potency is read from the fitted curve at half-maximal effect.

For COC(=O)C1=C(C)NC2=C(C1c1ccc(O)cc1)S(=O)(=O)c1ccccc12 (stereo unspecified) the results were RE007 growth inh 5%, SARS PLP yeast 9%, 2A StopGo -4%, Lassa entry inh 11%, Cruzain noTriton -7%, Marburg entry inh 3%[46.1 µM], Cruzain inh Det -0.5% and NS1 inh -6%.
For CCCCOC(=O)c1ccc(Nc2ccc([N+](=O)[O-])cn2)cc1 the results were RE007 growth inh 9%, SARS PLP yeast inconclusive, 2A StopGo -6%, Lassa entry inh 4%, Cruzain noTriton -16%, Marburg entry inh -1%, Cruzain inh Det -0.5% and NS1 inh 13%.
`COc1ccc(C(=O)NC(=S)Nc2ccc(Cl)cn2)cc1OC` gave RE007 growth inh 4%, SARS PLP yeast 0%, 2A StopGo 7%, Lassa entry inh 0%, Marburg entry inh 20% and NS1 inh -3%.
`Cc1cc(=O)oc2c3c(cc(OCC(=O)NCc4ccco4)c12)OC(C)(C)CC3` gave RE007 growth inh -12%, SARS PLP yeast -8%, 2A StopGo -20% and NS1 inh -22%.
For CCn1c(C(=O)NCc2ccccc2)cc2sc(Cl)cc21 the results were 2A StopGo -3%, Cruzain noTriton -4%, Marburg entry inh 10%[46.1 µM] and Cruzain inh Det 2.2%.
`Cc1cc(C)n(-c2nc(C)c(C)c(=O)n2CC(=O)Nc2cccc([N+](=O)[O-])c2)n1` gave 2A StopGo -18%, Lassa entry inh -3%[46.1 µM], Cruzain noTriton 3% and Cruzain inh Det -2.5%.
`CCN(CC)S(=O)(=O)c1c(Br)cc(C)cc1Br` gave RE007 growth inh -4%, SARS PLP yeast -12%, 2A StopGo inconclusive, Lassa entry inh -2%, Cruzain noTriton 0%, Marburg entry inh 0%, Cruzain inh Det 2.6% and NS1 inh -15%.
Screening O=C(O)CCc1ccc(-c2ccc(F)cc2)n1Cc1ccco1 returned RE007 growth inh -5%, SARS PLP yeast 1%, 2A StopGo 2%, Lassa entry inh 5%, Cruzain noTriton 3%, Marburg entry inh 12%, Cruzain inh Det -2.2% and NS1 inh -71%.
Screening CC1=C(C(=O)OC2CCCC2)C(c2coc3ccc(C)cc3c2=O)C2=C(CCCC2=O)N1 (stereo unspecified) returned RE007 growth inh -8%, SARS PLP yeast 8%, 2A StopGo -24%, Lassa entry inh -23% and Marburg entry inh -26%.
COc1ccc(NC(=O)c2ccc(CN3CCc4ccccc4C3)cc2)c(OC)c1 was read as RE007 growth inh -9%, SARS PLP yeast 10%, 2A StopGo -24% and NS1 inh -8%.
For CC(C)(C)C1CCC(C(=O)Nc2cccnc2)CC1 (stereo unspecified) the results were RE007 growth inh 13%, SARS PLP yeast -2%, 2A StopGo -18%, Lassa entry inh -1%[46.1 µM] and Marburg entry inh inconclusive.
`CCOC(=O)N1CCC(NC(=O)C2CCN(c3ccc(N4CCOCC4)nn3)CC2)CC1` gave RE007 growth inh 4%, SARS PLP yeast 1%, 2A StopGo 3%, Lassa entry inh -2%, Cruzain noTriton -3%, Marburg entry inh -8%, Cruzain inh Det -1.9% and NS1 inh 1%.
For CCCc1cc(=O)[nH]c(SCC(=O)Nc2ccc(C(=O)Nc3ccccc3OC)cc2)n1 the results were RE007 growth inh -1%, SARS PLP yeast -4%, 2A StopGo -4%, Lassa entry inh 6% and Marburg entry inh -27%.
Screening COc1ccc(OCC(=O)Nc2ccccc2OC(F)F)cc1 returned RE007 growth inh -20%, SARS PLP yeast -3%, 2A StopGo -8%, Lassa entry inh 7%, Cruzain noTriton -13%, Marburg entry inh 0%, Cruzain inh Det -2.9% and NS1 inh -35%.
Screening CCCS(=O)(=O)N1CCCC(C(=O)NCCc2ccccc2)C1 (stereo unspecified) returned RE007 growth inh -8%, SARS PLP yeast 0%, 2A StopGo 24%, Lassa entry inh 26%[46.1 µM], Marburg entry inh 7%[46.1 µM] and NS1 inh 0%.
Screening CCCOC(=O)c1ccc(-n2nnnc2SCC(=O)N2CCCCC2)cc1 returned RE007 growth inh -7%, SARS PLP yeast 16%, 2A StopGo -29%, Lassa entry inh -3%, Cruzain noTriton 0%, Marburg entry inh -4%, Cruzain inh Det -1.6% and NS1 inh -2%.
For CC1(C)CC(=O)C=C(NCc2cccs2)C1 the results were RE007 growth inh 18%, SARS PLP yeast -1%, 2A StopGo 10%, Lassa entry inh 6%, Cruzain noTriton 4%, Marburg entry inh 1%, Cruzain inh Det 0.9% and NS1 inh -5%.
`CCCN(C(=O)c1cc2c(=O)oc3ccccc3c2s1)c1ccc(CC)cc1` gave 2A StopGo -4%, Lassa entry inh -5%[46.1 µM], Cruzain noTriton -5%, Marburg entry inh 3%[46.1 µM] and Cruzain inh Det -0.8%.
COCCn1c(SCC(=O)c2[nH]c(C)c(C(C)=O)c2C)nc2ccccc21 was read as RE007 growth inh 1%, SARS PLP yeast -6%, Lassa entry inh -15%, Cruzain noTriton -8%, Marburg entry inh -26%, Cruzain inh Det -3.6% and NS1 inh -3%.
Screening Cn1c(-c2ccc(Cl)nc2)nc2ccccc21 returned RE007 growth inh -2%, SARS PLP yeast -2%, 2A StopGo 25%, Lassa entry inh inconclusive, Marburg entry inh 5%[46.1 µM] and NS1 inh -4%.
For Cc1cc(C)nc(N2CCCC(C(=O)Nc3ccc4c(c3)OCO4)C2)n1 (stereo unspecified) the results were RE007 growth inh -6%, SARS PLP yeast -2%, 2A StopGo 21%, Lassa entry inh inconclusive, Cruzain noTriton 8%, Marburg entry inh 13%, Cruzain inh Det 0.5% and NS1 inh -1%.
For O=C(Cn1nc(-c2ccccc2)c2ccccc2c1=O)Nc1ccccn1 the results were RE007 growth inh 11%, SARS PLP yeast 1%, 2A StopGo 10%, Lassa entry inh inconclusive, Cruzain noTriton 4%, Marburg entry inh inconclusive, Cruzain inh Det -6.3% and NS1 inh -32%.
`Cc1cc(C(=O)OCC(=O)N2CCN(C(=O)c3ccco3)CC2)c(C)n1-c1ccc(F)cc1` gave RE007 growth inh 0%, SARS PLP yeast 4%, 2A StopGo 0%, Lassa entry inh inconclusive, Cruzain noTriton inconclusive, Marburg entry inh -8%&1%, Cruzain inh Det 1.5% and NS1 inh -10%.
For CCNCCNC(=O)c1c(O)c2cccc3c2n(c1=O)CCC3 the results were RE007 growth inh 1%, SARS PLP yeast 6%, 2A StopGo -24%, Lassa entry inh 9%, Cruzain noTriton -3%, Marburg entry inh 1%, Cruzain inh Det -4.5% and NS1 inh -13%.
`Cc1cccc2nc(CSC(=N)N)c(Br)n12` gave RE007 growth inh -13%, SARS PLP yeast 0%, 2A StopGo -24%, Lassa entry inh -29%, Cruzain noTriton 2%, Marburg entry inh inconclusive, Cruzain inh Det -3.9% and NS1 inh -9%.
CC1CCc2c(sc(NC(=O)CCCOc3ccc(C(C)(C)C)cc3)c2C(N)=O)C1 (stereo unspecified) was read as 2A StopGo -9%, Lassa entry inh 3%[46.1 µM], Cruzain noTriton -3% and Cruzain inh Det -3.8%.
Screening CC(C)CCn1c(N2CCC(C(N)=O)CC2)nc2c1c(=O)[nH]c(=O)n2C returned RE007 growth inh -1%, SARS PLP yeast 2%, 2A StopGo -18%, Lassa entry inh 14%, Cruzain noTriton 2%, Marburg entry inh -11%, Cruzain inh Det 0.4% and NS1 inh 0%.
`Cc1ccc(CNS(=O)(=O)c2c(C(=O)N3CCCCC3)c(C)n(C)c2C)cc1` gave RE007 growth inh 6%, SARS PLP yeast -2%, 2A StopGo 3%, Lassa entry inh 24%[46.1 µM], Marburg entry inh -2%[46.1 µM] and NS1 inh 0%.
For Cc1cc(C)nc(N/N=C/c2ccccc2OCc2ccc(Br)cc2)n1 the results were RE007 growth inh 0%, SARS PLP yeast -3%, 2A StopGo 1%, Lassa entry inh 17%, Cruzain noTriton -22%, Marburg entry inh -2%, Cruzain inh Det -3.7% and NS1 inh 0%.
For O=[N+]([O-])/C(C(Cl)=C(Cl)Cl)=C(/Sc1ccccc1)N1CCCCC1 the results were RE007 growth inh 17%, SARS PLP yeast 1%, 2A StopGo inconclusive, Lassa entry inh -14%, Marburg entry inh -5% and NS1 inh 0%.
For Cc1nccn1CCC(=O)O the results were RE007 growth inh -8%, SARS PLP yeast 3%, 2A StopGo 0%, Lassa entry inh -2%, Cruzain noTriton 6%, Marburg entry inh 5%, Cruzain inh Det 6.5% and NS1 inh 2%.
`Cc1ccc2nc3c(cc2c1)c(NS(=O)(=O)c1ccccc1)nn3CC(C)C` gave RE007 growth inh 24%, SARS PLP yeast 5%, 2A StopGo -12%, Lassa entry inh -9%, Cruzain noTriton 1%, Marburg entry inh inconclusive, Cruzain inh Det 3.3% and NS1 inh 5%.
Screening C=CCN(CC=C)CCOc1ccc2ccccc2c1 returned RE007 growth inh -11%, SARS PLP yeast 0%, 2A StopGo 4%, Lassa entry inh 20%[46.1 µM], Marburg entry inh -13%[46.1 µM] and NS1 inh 5%.
Cc1[nH]c(C)c2c(=O)n(-c3ccccc3)ncc12 was read as RE007 growth inh -3%, SARS PLP yeast -8%, 2A StopGo 15%, Cruzain noTriton -3%, Cruzain inh Det -5.7% and NS1 inh -6%.
`Cc1cc(NC(=O)CSc2nc(-c3ccccc3)c(C#N)c(=O)[nH]2)no1` gave RE007 growth inh 18%, SARS PLP yeast 2%, 2A StopGo -28%, Lassa entry inh -17%, Cruzain noTriton -9%, Marburg entry inh 8%, Cruzain inh Det -6.0% and NS1 inh 11%.
O=C1CS/C(=C/C(=O)c2ccccc2)N1 was read as RE007 growth inh -2%, SARS PLP yeast -9%, Lassa entry inh 7%, Cruzain noTriton 1%, Marburg entry inh 17%, Cruzain inh Det -4.6% and NS1 inh -12%.
`S=C(NCCN(C1CCCCC1)C1CCCC1)Nc1cccc(Cl)c1` gave RE007 growth inh -6%, SARS PLP yeast 2%, 2A StopGo -16%, Lassa entry inh inconclusive, Marburg entry inh inconclusive and NS1 inh -3%.
For CC(=O)N1c2ccc(S(=O)(=O)NCc3ccccc3Cl)cc2CC1C (stereo unspecified) the results were RE007 growth inh -8%, SARS PLP yeast inconclusive, 2A StopGo 39%&54%[activator], Lassa entry inh -21%[46.1 µM], Cruzain noTriton 8%, Marburg entry inh -1%[46.1 µM], Cruzain inh Det -3.7% and NS1 inh 1%.
